KCNQ2 inh = KCNQ2 channel blockers in CHO-K1 cells – cell-based, FluxOR thallium flux, B-score, primary screen (AID 2156); B-score at 10 µM; O88943; 20 min; stronger effect = lower value; only compounds with negative scores are shown here; some inactives read as strong as hits; actives 1.1% (n = 310,000);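 active means fluorescence ratio B-score at most minus 3 library SDs, with starting brightness B-score within 2 library SDs, cut at about -5.5 in these data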
Target sequence (O88943 whole entry, looked up): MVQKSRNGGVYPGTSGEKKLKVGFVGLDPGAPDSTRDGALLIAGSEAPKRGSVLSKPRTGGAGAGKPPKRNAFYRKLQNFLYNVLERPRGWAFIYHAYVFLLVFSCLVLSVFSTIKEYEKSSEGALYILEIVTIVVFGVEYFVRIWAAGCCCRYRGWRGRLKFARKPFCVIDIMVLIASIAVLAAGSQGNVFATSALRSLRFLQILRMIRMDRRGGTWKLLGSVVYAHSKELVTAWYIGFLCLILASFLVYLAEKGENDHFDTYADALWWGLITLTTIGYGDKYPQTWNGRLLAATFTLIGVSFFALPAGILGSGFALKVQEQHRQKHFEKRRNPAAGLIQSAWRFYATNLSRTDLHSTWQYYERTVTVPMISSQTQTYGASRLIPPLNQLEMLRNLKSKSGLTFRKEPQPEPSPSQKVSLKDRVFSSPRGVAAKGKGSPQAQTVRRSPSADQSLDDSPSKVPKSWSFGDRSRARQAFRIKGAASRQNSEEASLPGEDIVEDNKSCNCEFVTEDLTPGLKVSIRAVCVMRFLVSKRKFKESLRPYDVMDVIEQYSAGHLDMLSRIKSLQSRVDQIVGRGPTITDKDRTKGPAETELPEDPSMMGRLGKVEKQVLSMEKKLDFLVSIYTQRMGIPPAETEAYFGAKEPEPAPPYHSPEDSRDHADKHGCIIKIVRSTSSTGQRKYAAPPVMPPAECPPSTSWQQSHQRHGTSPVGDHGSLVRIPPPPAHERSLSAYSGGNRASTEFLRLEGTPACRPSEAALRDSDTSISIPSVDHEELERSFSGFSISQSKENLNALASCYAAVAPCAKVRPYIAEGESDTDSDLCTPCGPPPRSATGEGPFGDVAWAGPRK
KCNQ2 inh baseline = also measured in KCNQ2 inh; calls as there; B-score; measured here: initial fluorescence intensity artifact check;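 brightness before thallium and not channel activity; 0 = typical well and far values either way flag optical interference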
Numbers without * were called inactive; i = inactive. Only part of the results is shown; rates above refer to the full screens.

compound	KCNQ2 inh	KCNQ2 inh baseline
Cc1cc(C)cc(NC(=O)CN2CCN(c3ccccn3)CC2)c1	i	-0.01
Cc1ccc(S(=O)(=O)c2nc(S(=O)(=O)c3ccc(C)cc3)c(N3CCN(CCO)CC3)s2)cc1	i	1.1
CCN=c1sc(C(=O)NCCc2ccccc2)cc(=O)n1CC	i	-0.04
CC(/C=N/N1CCN(c2ccccc2)CC1)=C\c1ccco1	i	0.71
O=C(CCc1ccccc1)Nc1cccc(NC(=O)CCc2ccccc2)c1	i	0.8
CC1CCN(S(=O)(=O)c2ccc(NC(=O)Cc3ccccc3)cc2)CC1	i	-0.72
O=C(CNc1cccc(Cl)c1)c1ccc(Br)cc1	i	-0.55
CC1CCCCN1C(=O)CSc1nc2cc3c(cc2c(=O)n1Cc1ccc2c(c1)OCO2)OCO3 (stereo not drawn)	i	-0.57
CCCCCC#CCC#CCC#CCC#CCCCC(=O)O	i	-2.3
CCSC(=Nc1ccccc1)N1CCOCC1	i	1.3
COC(Cc1n[nH]c(=S)n1-c1ccc(Cl)cc1)OC	i	3
CCCn1c(CNC(=O)c2ccccc2)nc2ccccc21	i	0.95
O=C(COc1ncnc2scc(-c3ccccc3)c12)NC1CCCc2ccccc21 (stereo not drawn)	i	-1.2
O=S(=O)(Nc1cc(S(=O)(=O)N2CCOCC2)ccc1N1CCCC1)c1cccs1	i	-0.55
O=C(COC(=O)c1ccc2c(c1)OCO2)Nc1nc(-c2ccccc2)cs1	i	-0.49
COc1ccc(NC(=O)CN2C(=O)NC3(CC(C)CC(C)(C)C3)C2=O)cc1S(=O)(=O)N1CCCCC1 (stereo not drawn)	-8.9*	0.6*
CCCNC(=O)N1CCCC(C(=O)c2cccc(Cl)c2)C1 (stereo not drawn)	i	-0.02
c1cnc2nc(CSc3ncn[nH]3)cn2c1	i	0.19
COc1ccccc1NS(=O)(=O)c1ccc2oc(SCc3ccc(C#N)cc3)nc2c1	i	0.86
c1cc(-c2cn(C[C@H]3CC[C@@H]([C@@H]4CC[C@H](Cn5cc(-c6ccsc6)nn5)O4)O3)nn2)cs1	i	-0.23
CNc1nc(-c2c[nH]c3ccccc23)cs1	i	-1.3
CN1C(=O)c2ccc(C(=O)NC3CCCCC3)cc2C1=O	i	-1.2
Cc1ccc(/C=C2/SC(=S)N(CCC(=O)NCCCN3CCOCC3)C2=O)cc1	i	-1.3
COc1cc(Cl)ccc1OCc1cc(C(=O)NC2CCc3ccccc32)no1 (stereo not drawn)	i	-1.5
N#C/C(=C\c1ccco1)c1nc2ccccc2s1	i	-0.01
NC(N)=N/N=C/c1ccc(OCc2ccc(Cl)cc2)cc1	-9.6*	-1.2*
O=C(Nc1ccc(Br)c(Br)c1)C1CCCO1 (stereo not drawn)	i	0.5
O=C(N/N=C/c1c(O)n(Cc2ccccc2)c(=O)c2ccccc12)c1cccnc1	i	4.5
CC1CCCCN1S(=O)(=O)c1ccc(NC(=O)c2cccs2)cc1 (stereo not drawn)	i	-0.16
O=C(CN1C(=O)NC2(CCCC2)C1=O)Nc1ccc(S(=O)(=O)N2CCOCC2)cc1	i	1.2
O=C(CCc1nnc(COc2ccccc2)o1)NC1(c2ccccc2)CC1	i	-0.15
O=C(c1cccs1)N1CCN(Cc2cn[nH]c2-c2ccc(F)cc2F)CC1	i	0.24
Cc1ccc(N(CCC(=O)O)S(=O)(=O)c2cccc(C(F)(F)F)c2)cc1	i	0.04
COc1cccc(-c2nc(-c3ccc(NC(=O)c4cccs4)cc3)no2)c1	i	3.4
Cc1ccc(OCCOCCNC(C)(C)C)c([N+](=O)[O-])c1	i	-0.08
COc1ccc(/C=C/C(=O)Nc2cc(C)nn2-c2nc3ccccc3[nH]2)cc1	i	-0.27
Cc1ccc(-n2ncc3c(=O)[nH]c(SCC(=O)N4CCOCC4)nc32)cc1	i	0.16
CCC1CN(C(=O)N2CCC(C(=O)NCCc3ccc(OC)cc3OC)CC2)c2ccccc2O1 (stereo not drawn)	i	-0.47
CCCOc1ccc(CN(C)c2ncnc(N)n2)cc1	i	0.28
O=C(Nc1ccccc1)Nc1ccccc1-n1ccnc1	i	0.74
COC(=O)/C=C1\OC(c2ccccc2)=CC1=O	-13*	0.14*
CC1(C)C([N+](=O)[O-])C(c2ccc(O)cc2)NC(c2ccc(O)cc2)C1[N+](=O)[O-] (stereo not drawn)	i	-0.71
O=C(CN1CCCC1)Nc1ccc(S(=O)(=O)N2CCCCC2)cc1	i	3
CCc1ccccc1NC(=O)CCNS(=O)(=O)c1ccc2c(c1)CCC(=O)N2	i	-1.2
Cc1ccc(NC2c3ncccc3C(=O)N2C2CCCCC2)cc1 (stereo not drawn)	i	-3.1
CC1(C)CC(=O)C2=C(C1)OC(/N=C/N1CCOCC1)=C(C#N)C2c1ccccc1 (stereo not drawn)	i	-0.15
Cc1ccc(-c2c3c(=O)n(C)c(=O)n(C)c3cn2-c2ccccc2O)cc1	i	0.07
COc1ccc2ccccc2c1/C=N/NC(=O)c1cc(C)[nH]n1	i	0.03
O=S(=O)(Nc1ccc(N2CCOCC2)cc1)c1ccc(F)cc1F	i	-0.19
CCN(CC(=O)NCc1ccc(Cl)cc1)C(=O)COc1ccc(C)cc1C	i	0.91

Continued.
compound	KCNQ2 inh	KCNQ2 inh baseline
COc1ccc(C)cc1S(=O)(=O)N(CC(=O)Nc1cc([N+](=O)[O-])ccc1C)c1ccc(C)c(C)c1	i	0.35
O=C(O)c1ccc([N+](=O)[O-])c2c1C(=O)c1ccccc1C2=O	i	1.4
Cc1ccc(S(=O)(=O)N(C)/N=C/c2ccc(N(C)C)cc2)cc1	i	0.67
CN1CCN(Cc2c(O)ccc3c2oc(=O)c2ccccc23)CC1	i	-1.6
Cc1ccccc1C(=O)c1cccn1CC(=O)NCc1ccco1	i	1.9
CSc1cccc(NC(=O)CCNS(=O)(=O)c2ccc3[nH]c(=O)oc3c2)c1	i	0.01
CC1CC(C)(C)NC(=S)S1 (stereo not drawn)	i	1.4
COC(=S)Nc1cccc(C(F)(F)F)c1	i	3
Cc1ccc2c(c1)CC(C)N2S(=O)(=O)c1nnc(NC(=O)CC(C)C)s1 (stereo not drawn)	i	0.05
Cc1cccc(C(=O)NCC(=O)NC2CCC(C)CC2)c1 (stereo not drawn)	i	0.55
Cc1cc(C)c(S(=O)(=O)N(C)CC(=O)NCc2ccncc2)c(C)c1	i	-1.6
S=C1NCN(C2CCCCC2)CN1CCc1ccccc1	i	-0.86
S=C(N/N=C/c1ccc2ncccc2c1)Nc1ccccc1	i	-0.31
c1ccc(-c2cc(-c3ccc(N4CCOCC4)cc3)nc3ccccc23)cc1	i	-0.18
C#CCn1c(=NC(=O)c2ccc(Br)s2)sc2cccc(OC)c21	i	-0.38
COc1cccc(OC)c1C(=O)Nc1nc2ccc([N+](=O)[O-])cc2s1	i	-2
Fc1ccc(NC(=S)NCc2ccccc2Cl)cc1	i	-2.1
Cc1cccc(Cl)c1NC(=O)N1CCCN(c2nc3ccc(Cl)cc3s2)CC1	i	-0.53
CCOC(=O)c1sc(=S)n(C)c1NC(=O)c1ccc(F)cc1	i	-0.05
Cc1ccc(-n2cccc2/C=C2/C(=N)N3C(=NC2=O)SN=C3S(C)(=O)=O)cc1	i	-0.07
CC(=O)Nc1ccc(OCC=C(Cl)Cl)cc1	i	1.4
Cc1cccc(C)c1N(CC(=O)Nc1cc(Cl)ccc1Oc1ccccc1)S(C)(=O)=O	i	-0.08
CCC(C)NC(=O)CN1c2cccc3cccc(c23)S1(=O)=O (stereo not drawn)	i	-0.1
N#CCCN(C(=O)COC(=O)COc1ccc(Cl)cc1)c1ccccc1	i	-0.9
CC(C)[C@H](NS(=O)(=O)/C=C/c1ccccc1)C(=O)OCC(=O)NC(N)=O	i	0.87
COc1ccc(CCNC(=O)c2cc([N+](=O)[O-])ccc2N2CCOCC2)cc1	i	0.05
Cc1ccc(S(=O)(=O)N(C)C)cc1NC(=O)CSc1ncn[nH]1	i	2.5
CC(CO)Nc1nc(SCc2ccccc2)nc2sc3c(c12)CCC3 (stereo not drawn)	i	-0.48
CC(C)(C)c1cc(C(=O)N/N=C/c2ccccc2O)n(-c2ccccc2)n1	i	-1.2
O=C(N/N=C/c1ccncc1)c1ccccc1OCc1ccc(Br)cc1	i	0.2
O/N=C\c1cccn1-c1ccc(Br)cc1	i	0.83
O=C(O)CCC(=O)NCCn1c(-c2ccccc2)csc1=Nc1ccccc1	i	2.3
Cn1c(=O)cc2c3c(c(N4CCCCC4)ccc31)C(=O)c1ccccc1-2	i	-0.27
O=C(Cc1ccc(F)cc1)N1CCN(c2ccc([N+](=O)[O-])cc2)CC1	i	0.67
N#Cc1ccc(OCCOCCNC2CCCC2)cc1	i	1.7
CCc1ccccc1NC(=O)/C(C#N)=C\c1ccc(Sc2ccccc2)o1	i	0.19
COC(=O)c1cc(NC(=O)Nc2cccc(Cl)c2)ccc1Cl	i	0.36
CCn1c(SCC(=O)NCCc2ccccc2)nnc1-c1cccs1	i	-0.03
CCCn1c(SCC(N)=O)nnc1-c1ccco1	i	0.96
CCCCN(C)C(=O)CC(NS(=O)(=O)c1ccc(NC(C)=O)cc1)C(C)C (stereo not drawn)	i	0.2
CN(C)S(=O)(=O)c1ccc(C(=O)NCCSc2ccccc2)cc1	i	-1.6
COc1cc2c(cc1OC)C1(CCCC1)C(N)=C2C#N	i	1.5
CCOC(=O)N1CCc2c(sc(NC(=O)Cc3ccccc3)c2C(=O)c2ccc(OC)cc2)C1	i	0.87
CSCC[C@H](NC(=O)c1ccc2ccccc2c1)C(=O)N1CCC2(CC1)NCCc1[nH]cnc12	i	0.57
CCOc1cc(C(=O)Nc2cccc(OCC(=O)N3CCOCC3)c2)cc(OCC)c1OCC	i	0.81
CCc1nnc(NC(=O)c2ccc(Cl)c(S(=O)(=O)N3CCc4ccccc43)c2)s1	i	0.75
O=C(CSc1nnnn1C1CCCCC1)NCc1ccc2c(c1)OCO2	i	0.61
CCCN(c1ccc(OCC)cc1)c1ncnc2nc[nH]c12	i	0.77
O=C(N/N=C/c1cccc([N+](=O)[O-])c1)c1ccc(Br)cc1	i	4.3
Cn1cccc1/C=C(/C#N)C(N)=S	i	-0.01

Next structures.
compound	KCNQ2 inh	KCNQ2 inh baseline
COC(=O)c1ccccc1NC(=O)C12CCC(C)(C(=O)O1)C2(C)C (stereo not drawn)	i	-0.39
CCOC(=O)C1(Cc2cccc(OC)c2)CCCN(S(=O)(=O)N(C)C)C1 (stereo not drawn)	i	0.02
COc1ccc(OCc2cc(C(=O)N3CCCC3)no2)c2ccccc12	i	1.8
COc1cccc(NC(=O)CCN2CCOCC2)c1	i	-0.35
COc1ccccc1NC(=O)Cn1cnc2sc(C)c(S(=O)(=O)N3CCCCC3)c2c1=O	i	-0.02
COc1ccc(-c2cc(=O)oc3cc(OCC(=O)NCCN4CCOCC4)ccc23)cc1	i	-0.67
Cc1cc(S(=O)(=O)NCc2ccc3c(c2)OCO3)ccc1F	i	-0.05
Cc1ccc(NC(=O)C2CCCN2S(=O)(=O)c2ccc3c(c2)n(C)c(=O)c(=O)n3C)cc1 (stereo not drawn)	i	-0.86
S=c1[nH]nc(CSCc2ccccc2Cl)n1C1CCCCC1	i	-0.03
COc1ccc(C(CCN(Cc2ccc(OC)c(OC)c2)C(C)=O)C(C)C)cc1 (stereo not drawn)	i	-1.8
CC(C)C1Oc2ccccc2N(CC(=O)N(Cc2ccncc2)Cc2ccco2)C1=O (stereo not drawn)	i	0.04
CCCOC(=O)Nc1nc2ccccc2o1	i	1.4
CC1(C)CC(N=c2cc(-c3ccccc3)oc3ccc(Cl)cc23)CC(C)(C)N1	i	-0.07
Cc1ccccc1NC(=O)NCc1cccnc1	i	-0.23
CC(C)Oc1ccc(C(=O)Nc2c3c(nn2C(C)(C)C)CS(=O)(=O)C3)cc1	i	2.2
COC(=O)CN(C#N)c1nc(NC(C)C)nc(OC)n1	i	0.91
O=C1N=NC(=O)N1c1ccccc1	i	0.61
Nc1cc(C(=O)c2cccs2)ccc1Cl	i	-0.08
COc1ccc(-c2cc(CNC(=O)CN(C)Cc3ccccc3)on2)cc1	i	-0.27
CC(CCc1ccccc1)NC(=O)Cc1ccccc1 (stereo not drawn)	i	0.89
CCOc1ccc(CNC(=S)N/N=C/c2ccncc2)cc1	i	-0.38
CCCCn1c(N)c(N(CCOC)C(=O)c2cnc(C)cn2)c(=O)[nH]c1=O	i	-0.46
Cc1cc(C(=O)OCC(=O)NCc2ccccc2)c(C)o1	i	1.1
CCOC(=O)c1c(C)oc2ccc(OCC(=O)C(C)(C)C)cc12	i	-0.24

6 entries already listed, sorted by SMILES length, rising.
compound	KCNQ2 inh	KCNQ2 inh baseline
Nc1cc(C(=O)c2cccs2)ccc1Cl	i	-0.08
CCOc1ccc(CNC(=S)N/N=C/c2ccncc2)cc1	i	-0.38
Cc1cc(C(=O)OCC(=O)NCc2ccccc2)c(C)o1	i	1.1
CCOC(=O)c1c(C)oc2ccc(OCC(=O)C(C)(C)C)cc12	i	-0.24
CCCCn1c(N)c(N(CCOC)C(=O)c2cnc(C)cn2)c(=O)[nH]c1=O	i	-0.46
CC(C)Oc1ccc(C(=O)Nc2c3c(nn2C(C)(C)C)CS(=O)(=O)C3)cc1	i	2.2

Full records as entered above.
COc1ccc(C(CCN(Cc2ccc(OC)c(OC)c2)C(C)=O)C(C)C)cc1 (stereo not drawn) across the screens: KCNQ2 inh: i; KCNQ2 inh baseline: -1.8
COc1ccc(OCc2cc(C(=O)N3CCCC3)no2)c2ccccc12 across the screens: KCNQ2 inh: i; KCNQ2 inh baseline: 1.8

Screens as filed in PubChem.
